Screening results deposited in PubChem by several laboratories.
A1 inh = caspase 3/7 activation in MEF A1-2A-BIM cells, primary screen, A1 inhibitor project, cell-based, luminescence, HTS; Caspase-Glo 3/7 luminescence, 3 h; percent of clofoctol response, vehicle zero; caspase activation, % (test concentration not listed); 330,000 tested, 0.066% active; AID 2462, 2010;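 active means over half of replicate activation scores above 10%, or exactly half above 10 with the replicate mean above 10; inconclusive means replicate mean below 10 yet half the replicates above 10; inactive means over half of replicates below 10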;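 further: wells of about 30 µL received 50 nL stock; many hits fall short of the cut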
T cruzi repl = inhibitors of intracellular T. cruzi growth, primary screen, luminescence, NIH3T3 host cells | T. cruzi beta-gal in NIH3T3, 90 h | inhibition, % (no concentration beside the values) | 300,000 tested, 1.4% active | AID 1885, 2009;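 active means mean inhibition across valid replicates above about 55%, limit read from the data; inconclusive means mean below that limit but half or more replicates reach it; inactive means mean below it, under half of replicates reach it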;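 further: signal also drops with host cell toxicity which is not excluded here; 0% = plate median of DMSO wells and 100% = zero luminescence signal; higher percent means less beta-gal luminescence so fewer parasites; stock transfer was 50 nL into about 50 µL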
Calb FLC = C. albicans growth inhibition with fluconazole, primary screen, CaCi-2 strain, Alamar Blue fluorescence. C. albicans CaCi-2 (fluconazole-resistant clinical isolate) + fluconazole, 48 h. growth inhibition, % (concentration not given with the values). 300,000 tested, 0.57% active. AID 1979, 2009;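 active means most replicates above 75%; inconclusive means exactly half above 75%; inactive means most below 75%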;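 further: all wells also contain fluconazole at 8 µg/ml as a sub-toxic cotreatment; 0% = median of DMSO wells and 100% = median of geldanamycin control wells; wells of about 8 µL received 7.5 nL stock; the first replicate is given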
Beta cell apopt = inhibitors of cytokine-induced beta cell apoptosis, primary screen, luminescence; 300,000 tested, 0.8% active; INS-1E cytokine-induced death, ATP luminescence, 48 h; percent of positive-control rescue, neutral wells zero; protection from apoptosis, % (concentration not given with the values);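 active means all replicates at 75% or more, or half of them and the mean; inconclusive means half reach 75% but not the mean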;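 further: 0% = cytokine-treated negative control wells and 100% = positive control rescue; higher means more ATP so stronger rescue from cytokine killing; wells of about 40 µL received 100 nL stock; the first replicate is given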
Ecoli rRNA inh = reduced GFP signal of wild-type E. coli, primary screen, bacterial rRNA inhibitor project, GFP/RFP fluorescence, OD600, single point; 350,000 tested, 1.6% active; GFP signal change (wild-type ribosome), % (test concentration not listed); E. coli WT GFP vs humanized-ribosome RFP mutants, 24 h; hits give low values; DMSO median 0, no signal -100; AID 720706, 2013;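 active means significant combined selectivity score with lowered wild-type GFP, culture density cut under 30%, mutant RFP and density less affected; inactive means any of these conditions unmet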; further: one replicate is shown; some compounds called inactive have numbers as strong as hits
Beta2AR agonist = beta2AR agonists driving receptor internalization, primary screen, cell-based, FAP fluorogen, flow cytometry; response, % (test concentration not listed); 340,000 tested, 0.43% active; Am2.2-beta2AR cells; reference of the scale not given here;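 active means response above a set limit, near 3 SD of response in nonfluorescent compounds, cut at about 42% in these data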;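 further: stock transfer was 100 nL into about 11 µL; a reference agonist was the positive control; negative values mostly stem from fluorescent compounds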
Target sequence (P07550 whole entry, looked up): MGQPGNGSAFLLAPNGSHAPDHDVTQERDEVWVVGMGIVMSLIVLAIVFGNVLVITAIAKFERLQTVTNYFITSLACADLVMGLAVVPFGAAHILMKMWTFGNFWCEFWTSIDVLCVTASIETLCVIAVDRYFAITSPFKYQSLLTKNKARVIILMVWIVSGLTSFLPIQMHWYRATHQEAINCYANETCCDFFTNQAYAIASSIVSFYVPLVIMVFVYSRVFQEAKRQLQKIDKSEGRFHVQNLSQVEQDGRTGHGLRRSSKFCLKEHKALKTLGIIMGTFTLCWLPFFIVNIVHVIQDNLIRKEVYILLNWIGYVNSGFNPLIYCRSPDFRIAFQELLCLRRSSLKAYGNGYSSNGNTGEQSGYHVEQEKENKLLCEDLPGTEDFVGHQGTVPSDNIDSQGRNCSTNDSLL
ALR H2O2 inh = inhibitors of human ALR sulfhydryl oxidase, primary screen, biochemical, H2O2 detection, HRP-luminol luminescence, single point; FAD-linked sulfhydryl oxidase ALR (Homo sapiens), P55789; purified ALR, DTT oxidation; inhibition, % (no concentration beside the values); 290,000 tested, 3.8% active; AID 485317, 2010;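 active means mean and each replicate at 75% or more; inconclusive means only one of the two met; inactive means neither met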;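 further: stock transfer was 7.5 nL into about 7.5 µL; 0% = neutral wells and 100% = wells with inactivated enzyme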
Target sequence (P55789 whole entry, looked up): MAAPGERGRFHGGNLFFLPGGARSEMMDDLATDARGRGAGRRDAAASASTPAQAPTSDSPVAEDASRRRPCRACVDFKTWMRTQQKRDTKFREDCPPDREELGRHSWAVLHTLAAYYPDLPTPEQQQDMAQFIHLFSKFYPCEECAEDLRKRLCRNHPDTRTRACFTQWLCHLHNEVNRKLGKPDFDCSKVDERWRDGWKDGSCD
LANA-H2B inh = blockers of LANA interaction with H2A/H2B – biochemical, FP readout, HTS, primary screen | cell-free LANA-H2A/H2B peptide, fluorescence polarization | inhibition, % (test concentration not listed) | 320,000 tested, 0.6% active | AID 2629, 2010; in the data active means inhibition mostly above about 10%, no sharp cut-off; inactive means mostly below about 6.7%;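 further: stock transfer was 7.5 nL into about 10 µL; 0% = median of vehicle wells and 100% = median of positive control wells; one replicate is shown; the record names a cut of 25% in any replicate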
Ecoli rRNA inh OD600 = further read-out of Ecoli rRNA inh, marked with its call; OD600 change, %; measured here: OD600 growth;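 optical density of the mix in the first replicate; 0 = DMSO median and -100 = no signal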
Ecoli rRNA inh RFP = further read-out of Ecoli rRNA inh, marked with its call; RFP signal change, %; measured here: RFP humanized mutant strains;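 first replicate; 0 = DMSO median and -100 = no signal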
* = called active by the depositor; ? = inconclusive; · = not tested or not shown. An excerpt; count on the stated rates, not on these rows.

SMILES	A1 inh	T cruzi repl	Calb FLC	Beta cell apopt	Ecoli rRNA inh	Ecoli rRNA inh OD600	Ecoli rRNA inh RFP	Beta2AR agonist	ALR H2O2 inh	LANA-H2B inh
COC(=O)CC(NS(=O)(=O)c1cccs1)c1cccc2ccccc12 (configuration not stated)	0.1	-14	21	5	·	·	·	5	-1	9.2
COc1ccc(/C=C2\CCCc3c2nc2ccccc2c3C(=O)OCC(=O)c2c(N)n(C)c(=O)n(C)c2=O)cc1	-0.5	68*	7	11	·	·	·	·	·	·
CC(=O)n1nc(-c2cccc(C)c2)nc1SCC(=O)Nc1ccccc1	-1.0	-9	12	5	·	·	·	-5	·	-1.1
CC1CC(=O)c2cnc(NCc3ccco3)nc2C1 (configuration not stated)	0.3	-1	0	-2	-1	14	-5.2	-1	3	-1.8
CCOC(=O)c1ccc(-c2c(-c3ccc4c(c3)OCO4)noc2C)cc1F	-0.9	1	7	4	-11	-23	-13	8	-3	-3.6
COc1ccc(N(CC(=O)N/N=C/c2ccc(OC)c(OC)c2)S(=O)(=O)c2ccccc2)cc1	2.0	-3	3	8	-8	-22	0.9	10	-10	5.7
NC(=O)CSc1nnc(Cc2ccc3c(c2)OCO3)o1	0.1	-8	-2	-9	·	·	·	0	·	5.4
CN(C(=O)CSc1nnc(-c2cccnc2)n1-c1ccccc1F)C1CCS(=O)(=O)C1 (configuration not stated)	0.5	-14	-7	-4	5	2	-1.4	3	-9	-0.2
Cc1cccc(OCCCC(=O)Nc2ccc(S(N)(=O)=O)cc2)c1C	0.7	2	-2	·	·	·	·	10	3	0.9
CC(C)CNC(=S)N1CCN(c2nc3ccccc3s2)CC1	-0.1	-2	?	-3	-6	-7	0.0	-23	·	-1.4
CCCN=C(N)/C(C(=O)OCC)=C(\O)c1ccc(OC)cc1	-0.4	10	-5	-5	·	·	·	-13	-7	1.0
COc1ccc(C(=O)COC(=O)c2ccccn2)c(OC)c1	2.0	·	·	-13	0	2	0.7	0	6	4.2
COc1ccc2c(c1)NC(C)(C)C=C2C	0.2	66*	1	13	-9	-2	16	5	5	3.6
N#CC1=C(N)Oc2c(O)cc3ccccc3c2C1c1ccsc1 (configuration not stated)	-0.6	-4	27	-6	-17	-18	3.6	1	44	-1.0
COc1cc(NC(=O)c2ccccc2)c(OC)cc1NC(=O)Cc1ccc(C)cc1	0.8	12	-5	14	20	20	4.3	-2	-3	2.4
Cc1nc2ccc(NC(=O)c3ccco3)cc2nc1C	-0.3	·	11	2	10	5	0.1	-16	99*	1.9
COc1cccc(C(=O)NC2CC3CCCC(C2)N3CC(=O)Nc2ccccc2)c1 (configuration not stated)	0.7	22	-2	3	·	·	·	-1	44	-4.4
O=c1c2[nH]c3ccccc3c2ncn1CCN1CCOCC1	-0.2	-10	-13	-3	·	·	·	2	-22	4.4
Cc1ccc(NC(=O)COc2ccc(C(=O)c3ccccc3)cc2)c(O)c1	0.3	-4	19	-14	-2	0	0.6	2	-6	-3.1
CCN(CC)S(=O)(=O)c1ccc(OC)c(NC(=S)Nc2cccc(C)c2)c1	0.1	-11	-2	-10	·	·	·	·	1	0.5
COc1ccc(OC)c(NC(=O)CSc2nnc(CNC(=O)c3cccs3)o2)c1	0.4	27	-4	-5	5	5	-0.8	0	-22	-0.4
Cc1cc(C)cc(N(C(=O)c2ccccn2)C(C(=O)NC2CCCCC2)c2cccs2)c1 (configuration not stated)	1.5	35	-11	·	·	·	·	4	-5	-1.5
CCOc1ccc(N2C(=O)CC(N)C2=O)cc1 (configuration not stated)	-0.7	·	-15	-4	·	·	·	-5	65	-0.4
CCc1nnc(NC(=O)c2cc([N+](=O)[O-])ccc2N2CCOCC2)s1	1.8	-11	12	-3	-2	1	-1.0	-10	-19	4.1
CC1CC1C(=O)OCC(=O)Nc1ccccc1Oc1ccccc1 (configuration not stated)	0.8	-31	2	-8	-9	-9	-1.1	-4	17	35*

Five of the compounds above, with bars between the fields.
mol | A1 inh | T cruzi repl | Calb FLC | Beta cell apopt | Ecoli rRNA inh | Ecoli rRNA inh OD600 | Ecoli rRNA inh RFP | Beta2AR agonist | ALR H2O2 inh | LANA-H2B inh
CC(=O)n1nc(-c2cccc(C)c2)nc1SCC(=O)Nc1ccccc1 | -1.0 | -9 | 12 | 5 | · | · | · | -5 | · | -1.1
CCOc1ccc(N2C(=O)CC(N)C2=O)cc1 (configuration not stated) | -0.7 | · | -15 | -4 | · | · | · | -5 | 65 | -0.4
N#CC1=C(N)Oc2c(O)cc3ccccc3c2C1c1ccsc1 (configuration not stated) | -0.6 | -4 | 27 | -6 | -17 | -18 | 3.6 | 1 | 44 | -1.0
CCCN=C(N)/C(C(=O)OCC)=C(\O)c1ccc(OC)cc1 | -0.4 | 10 | -5 | -5 | · | · | · | -13 | -7 | 1.0
CCOC(=O)c1ccc(-c2c(-c3ccc4c(c3)OCO4)noc2C)cc1F | -0.9 | 1 | 7 | 4 | -11 | -23 | -13 | 8 | -3 | -3.6

Remaining list, next part.
SMILES	A1 inh	T cruzi repl	Calb FLC	Beta cell apopt	Ecoli rRNA inh	Ecoli rRNA inh OD600	Ecoli rRNA inh RFP	Beta2AR agonist	ALR H2O2 inh	LANA-H2B inh
COc1ccccc1C(=O)NC(=O)COC(=O)CN1C(=O)NC(C)(C)C1=O	0.8	-5	-7	0	0	2	-1.4	6	2	-2.6
C[C@@H]1NC(=O)[C@H](CC(N)=O)NC(=O)c2cc([N+](=O)[O-])cc(I)c2OCC[C@@H](C(=O)NC(CC(=O)O)C(N)=O)NC1=O (some centres not stated)	-0.3	·	·	-4	8	6	-7.0	·	-13	-0.2
Cc1cc2[nH]c(=O)c(=O)[nH]c2cc1S(=O)(=O)NCc1ccc(Cl)cc1	-0.1	-11	-8	5	·	·	·	-4	-5	6.6
Cc1ccc(-c2cc(C(F)F)n3ncc(C(=O)N4CCCCC4c4cccnc4)c3n2)cc1 (configuration not stated)	0.1	63*	-4	4	-1	0	-0.1	21	-9	-2.2
Cc1ccc(N2NC(=O)/C(=C/c3ccc(-c4ccc(Cl)c(C(=O)O)c4)o3)C2=O)cc1	0.3	-12	-3	-4	15	11	-0.3	4	99*	0.9
CC(C)(C)c1ccc(NC(=O)CSc2nnc(-c3n[nH]c4ccccc34)o2)cc1	-1.3	-9	7	0	·	·	·	-17	-28	7.7
CC(=O)NNC(=S)NC(=O)C(c1ccccc1)c1ccccc1	0.8	-30	99*	16	-62	-76	-20	-8	11	-0.7
CCN(CC(=O)N1CCN(C)CC1)S(=O)(=O)c1ccc(Cl)cc1	0.4	16	2	-2	·	·	·	-5	2	-4.0
COC(=O)[C@@H](NC(=O)NC(C)CCc1ccccc1)C(C)C (some centres not stated)	0.9	-7	-3	0	·	·	·	-1	-4	0.7
CC(=O)Nc1ccc(S(=O)(=O)Nc2nccc(/C=C/c3ccccc3F)n2)cc1	0.1	-4	4	-2	9	12	1.3	0	2	1.6
O=C(COC(=O)C1(c2ccccc2F)CCCC1)NCc1cccs1	0.2	6	43	-2	-45	-68	-14	6	-29	4.7
NC(=O)C1CCN(c2nc(-c3cc4ccccc4o3)cs2)CC1	-0.9	·	·	0	5	10	6.4	-5	-9	-2.3
O=C1CC2(CCN(C(=O)c3c(F)cccc3F)CC2)Oc2ccccc21	1.1	-10	15	-5	-3	-3	-2.0	-1	-1	-6.6
CCOc1ccc(N=C(NC#N)SC)cc1	-0.1	-4	-17	-1	·	·	·	-3	3	-0.6
CCOC(=O)c1c(C)[nH]c(C(=O)COC(=O)/C=C/c2ccc(OCC#N)c(OC)c2)c1C	-0.8	2	-7	-7	7	-1	3.8	-7	0	1.8
CCOC(=O)C1CCCN(C2=NC(=O)/C(=C/c3ccc(O)c(OCC)c3)S2)C1 (configuration not stated)	1.3	4	-7	5	-21	-18	-1.7	-56	96*	-1.8
Cc1ccc(S(=O)(=O)N2CCOCC2)cc1NC(=O)COC(=O)c1ccc2c(c1)OCO2	-0.3	-1	-21	-2	4	0	0.0	4	9	2.4
CC12CN3CC(C)(CN(C1)C3c1ccc(Cl)cc1Cl)C2=O (configuration not stated)	0.2	-6	-1	-5	1	3	-1.8	1	0	-7.4
COc1ccc(-c2csc(NCCc3nc4cc(C(=O)NCCCO)ccc4n3Cc3ccc(C)cc3)n2)cc1	-1.2	23	9	-2	7	9	5.3	15	·	6.4
Cc1ccccc1NC(=O)C(=O)NCC1CCCN1S(=O)(=O)c1cccs1 (configuration not stated)	2.5	-1	3	-3	-8	-6	2.1	1	-21	4.7
COc1ccc(Cc2nnc(N/N=C(\C)c3ccccc3)[nH]c2=O)cc1OC	0.2	9	-2	-2	4	-1	-0.3	-4	5	-3.9
COc1cc(/C=N/NC(=O)c2ccoc2C)ccc1O	-6.8	-20	3	-2	4	6	-4.9	8	·	-0.6
NC(=O)C1CCN(c2oc(/C=C/c3ccc(F)cc3)nc2S(=O)(=O)c2ccccc2)CC1	-1.1	14	-13	-2	0	3	-2.0	16	-17	1.0
O=C(c1ccc([N+](=O)[O-])cc1)N1CCN(c2cccc3[nH]ccc23)CC1	0.8	22	-46	-1	-1	1	0.8	-1	99*	-2.1
CCCCc1nnc(NC(=O)c2ccc3c(=O)n4c(nc3c2)CCC4)s1	-0.4	6	4	1	5	10	-0.5	-5	0	1.7
CCOC(=O)c1c(NC(=O)COC)sc(C)c1C	0.3	-6	1	4	·	·	·	-5	0	1.2
O=C1C2CCCN2C(=O)N1CCCN1CCN(c2ccc([N+](=O)[O-])cc2)CC1 (configuration not stated)	0.5	7	-8	3	-1	-1	-2.2	-1	-8	-1.2
Clc1ccc(CN2CCN(c3ncccn3)CC2)cc1	-0.5	14	6	-4	-5	1	-5.7	-4	-1	-3.0
N#C/C=C/N1CCC(Cc2ccccc2)CC1	0.2	36	-3	0	3	2	-0.6	-15	-8	-2.6
C=CCn1c(SCc2cccc3ccccc23)nnc1-c1cccnc1	-0.6	1	16	3	·	·	·	-3	-10	1.9

LANA-H2B inh, what is marked active above
SMILES	A1 inh	Ecoli rRNA inh	Ecoli rRNA inh OD600	Ecoli rRNA inh RFP	Beta2AR agonist	ALR H2O2 inh	LANA-H2B inh
CC1CC1C(=O)OCC(=O)Nc1ccccc1Oc1ccccc1 (configuration not stated)	0.8	-9	-9	-1.1	-4	17	35*
